High-throughput results: PubChem BioAssay, National Center for Advancing Translational Sciences (NCATS)
Vaccinia Venus: qHTS for Stage-Specific Inhibitors of Vaccinia Orthopoxvirus: Venus Reporter Primary qHTS | 330,000 compounds, 0.46% hits | AID 720580, 2013 | Potency, µM (top dose mostly 36.5 µM), without a hit: at the top dose activity change, negative = inhibition, usual class: inhibitors | Vaccinia virus Venus reporter expression, fluorescence; active means well fitted inhibition curve with a large enough effect; inconclusive means small, poorly fitted or top-dose-only effect; inactive means no such curve, though single readings can be large or run the other way; tested in A549 cells; note: nearly all actives have a fitted effect of over 30% in size; inactives centre near -10
Vaccinia mCherry: qHTS for Stage-Specific Inhibitors of Vaccinia Orthopoxvirus: mCherry Reporter Primary qHTS; Vaccinia virus mCherry reporter infection, fluorescence; about a quarter of the inactives have no number; Potency, µM (series often up to 36.5 µM), for inactives: at the highest dose activity change, negative = inhibition, hits mostly inhibitors; 310,000 compounds, 0.63% hits; AID 720579, 2013; active = well fitted inhibition curve with a large enough effect; inconclusive = small, poorly fitted or top-dose-only effect; inactive = no such curve, though single readings can be large or run the other way; tested in A549 cells; note: nearly all actives have a fitted effect of over 35% in size; inactives centre near -10
* hit, by the source's call; i = inactive; ? = inconclusive; / = no result given; & = joins results of further samples; [ ] = dose if it differs, or a comment. % is set by controls: 0 for no effect and ±100 for the full control effect; potency is the fitted concentration of half-maximal effect.

SMILES	Vaccinia Venus	Vaccinia mCherry
C#CCOCCOCCOCCNc1nc(N2CCN(C(=O)Cn3cc(CC(C)O)nn3)CC2)nc(N2CCN(C(=O)[C@H](C)n3cc(CCCN=C(N)N)nn3)CC2)n1 (stereo partly drawn)	-13%	i
COc1cc(OC)c(NC(=O)N2CCOCC2)cc1Cl	-2%	-8%
O=C(NCc1ccco1)C1CCCN(S(=O)(=O)c2cccc3nonc23)C1 (stereo not drawn)	-4%	i
O=C1N=c2ccccc2=C1c1sc(Nc2ccc(O)cc2)nc1O	-16%	-7%
O=C(C[N+]1(CCc2ccccc2)CCOCC1)c1ccccc1	-8%	-21%
COc1ccc(CC(=O)NCc2ccccn2)cc1OC	0%	i[1.46 µM]
O=C(NCC(c1cccnc1)N1CCN(c2ccccc2)CC1)OCc1ccccc1 (stereo not drawn)	-13%	i
O=C1NC(c2ccccc2)Cc2ccncc21 (stereo not drawn)	-9%	-17%
O=C(Nc1cc(-c2nc3ncccc3o2)ccc1Cl)c1ccc([N+](=O)[O-])o1	-1%	-2%
CCOc1cccc(OCCCCN2CCOCC2)c1	0%	/
O=C(Nc1nc(-c2cccs2)c(-c2ccccc2)s1)c1ccco1	-22%	/
Cc1ccc(C)c(Oc2cc(F)nc(N)n2)c1	-2%	-22%
Cc1cc(C(=O)N2CCN(S(C)(=O)=O)CC2)sc1-c1ccccc1	-10%	-6%
COCOCCn1cc(CN2CCS(=O)(=O)N(Cc3ccc(-c4ccc(OC)cc4)cc3)C(CC(C)C)C2=O)nn1 (stereo not drawn)	?	-14%
OC[C@@H]1CN(Cc2cccnc2)C[C@H](n2cnc3c(NC4CCCC4)ncnc32)O1	6%	0%
NC(N)=NN=C(c1ccc(F)cc1)c1ccc(C(F)(F)F)cc1	13µM*	?
COc1c(Br)cc(Br)cc1/C=N/NC(=O)c1ccncc1	-9%	2%
COC(=O)c1c(-c2ccccc2)csc1NC(=O)c1c(-c2ccccc2)noc1C	19%	6.3µM*
CCOC(=O)C1CCN(C(=O)COc2ccc(S(=O)(=O)NC(C)C)cc2)CC1	-6%	-19%
Cc1ccc(-n2c(SCC(=O)OC(C)C)nnc2-c2ccco2)cc1	-14%	-18%
CCOC(=O)C1=C(N)Oc2ccc3ccccc3c2C1c1ccc(O)c(OC)c1 (stereo not drawn)	-24%	-17%
COc1ccc(-c2nc(SCC(=O)Nc3nccs3)c(-c3ccc(Cl)cc3)[nH]2)cc1	?	?
Cc1ccc(CNC(=O)CCc2nnc(Cc3ccc(-c4ccccc4)cc3)o2)o1	-21%	i
CCc1ccc(C2N=C(N)Nc3nc4ccccc4n32)cc1 (stereo not drawn)	-5%	i
COc1cc(-c2ccc(NC(=O)c3ccc(C)cc3)c(OC)c2)ccc1NC(=O)c1ccc(C)cc1	-19%	-17%

For reference, some entries already given:
SMILES	Vaccinia Venus	Vaccinia mCherry
C#CCOCCOCCOCCNc1nc(N2CCN(C(=O)Cn3cc(CC(C)O)nn3)CC2)nc(N2CCN(C(=O)[C@H](C)n3cc(CCCN=C(N)N)nn3)CC2)n1 (stereo partly drawn)	-13%	i
COc1cc(OC)c(NC(=O)N2CCOCC2)cc1Cl	-2%	-8%
O=C(NCc1ccco1)C1CCCN(S(=O)(=O)c2cccc3nonc23)C1 (stereo not drawn)	-4%	i
O=C1N=c2ccccc2=C1c1sc(Nc2ccc(O)cc2)nc1O	-16%	-7%
O=C(C[N+]1(CCc2ccccc2)CCOCC1)c1ccccc1	-8%	-21%
COc1ccc(CC(=O)NCc2ccccn2)cc1OC	0%	i[1.46 µM]

The list goes on.
SMILES	Vaccinia Venus	Vaccinia mCherry
Cn1c(=O)cc(N2CCOCC2)[nH]c1=O	6%	-13%
COc1ccc(N2C(=O)C3CCCN3C2c2ccccc2Cl)cc1 (stereo not drawn)	-4%	-9%
CCCNC(=O)C1CCN(S(=O)(=O)c2ccc3[nH]c(=O)ccc3c2)CC1	-7%	-14%
O=C1CCC(OCc2ccccc2)CCN1[C@H](CSc1ccccc1)Cc1ccccc1 (stereo partly drawn)	2%	20%
O=C(CSCc1ccc(Cl)cc1)Nc1ccc(-c2nnc(-c3ccccc3)o2)cc1	0%	-11%
CC1CCN(S(=O)(=O)CCNC(=O)c2ccc3c(c2)OCO3)CC1	-14%	i
C=CCC(CC=C)(C(=O)O)c1ccccc1	7%	/
CC(=O)c1cccc(NC(=O)CN2C(=O)CC(c3ccc(C)cc3C)=Nc3ccccc32)c1	-8%	-15%
COc1ccc2c(CN3CCN(C(C)=O)CC3)cc(=O)oc2c1	6%	7%
Cc1cccc(NS(=O)(=O)c2ccc(C)c(C(=O)NCc3cccnc3)c2)c1	-4%	i
Cc1ccc(C2CC(c3cccs3)=NN2C(=O)c2ccco2)o1 (stereo not drawn)	-15%	-10%
Cc1c(C(=O)Nc2ccc(F)cc2F)sc2nc3n(c(=O)c12)N=C(c1ccccc1)CS3	5%	-14%
O=C1CCCC/C=C\C[C@H](CC(=O)N(CCO)Cc2ccccc2)C(=O)NC[C@H](c2ccccc2)O1	-12%	-8%
O=C(COc1ccc(F)cc1)Nc1nnc(C2CCCCC2)s1	-1%	-12%
COc1cc(OC)cc(C(=O)N[C@H](C(=O)Nc2nc3c(s2)CCCC3)C(C)C)c1	?	i
CC(C)(C)OC(=O)C[C@@H]1C/C=C\C[C@@H](CC(=O)NCCO)C(=O)N[C@H](Cc2c[nH]c3ccccc23)COC1=O	-6%	-16%
O=C(CCNS(=O)(=O)c1ccc2c(c1)CCCC(=O)N2)NCc1ccc(Cl)cc1	4%	-8%
CCSc1ccc2nnc(-c3ccc(F)cc3)n2n1	-11%	-17%
COc1ccccc1CN1CC(C(=O)NCc2cc(C)on2)CCC1=O (stereo not drawn)	-11%	-12%
CCOC(=O)N1CCC(NC(=O)CC2C(=O)NCCN2Cc2cccc(F)c2F)CC1 (stereo not drawn)	-11%	i
O=C(NC1CC(=O)N(c2ccccc2)C1)C(c1ccccc1)c1ccccc1 (stereo not drawn)	-8%[7.34 µM]	-8%[7.34 µM]
O=C(Nc1ccccc1Cl)C1CCN(Cc2cnn(-c3ccccc3)c2-n2cccc2)CC1	-23%	-5%
O=C(NCc1ccncc1)C(=O)N/N=C/c1ccccc1OCc1ccccc1	-21%	?
Cc1ccc(CNC(=O)CCSCc2ccccc2F)cc1	-7%&-5%	-4%&-10%
COC(=O)c1ccccc1NC(=O)Cn1c(=O)cc(C)c2c(C)nn(C)c21	-20%	0%

Whole records, looked up by structure. Values in the order: Vaccinia Venus	Vaccinia mCherry
Profile of O=C(CCNS(=O)(=O)c1ccc2c(c1)CCCC(=O)N2)NCc1ccc(Cl)cc1 → 4%	-8%
Profile of CCSc1ccc2nnc(-c3ccc(F)cc3)n2n1 → -11%	-17%
Profile of COc1cc(OC)cc(C(=O)N[C@H](C(=O)Nc2nc3c(s2)CCCC3)C(C)C)c1 → ?	i

The list goes on.
SMILES	Vaccinia Venus	Vaccinia mCherry
OC(c1ccccc1)(c1ccccc1)C1CCN(C(=S)Nc2ccc(F)cc2)CC1	?	?
Cc1cccc(CSc2ccc(-c3cccs3)nn2)c1	-5%&-1%	-7%
Cc1ccc(S(=O)(=O)N(CC(=O)NCc2ccncc2)C2CCCCC2)cc1	-17%	-28%
Cc1cccc(OCCCC(=O)NNC(=O)CCN2CCN(c3ccccc3)CC2)c1	?	?
N#Cc1ccc(CNC(=O)N2CCOCC2)cc1	-1%	i
C[C@H](CO)N1C[C@H](C)[C@@H](CN(C)S(=O)(=O)c2cccc(F)c2)OCc2cnnn2CCCC1=O	-7%	i
Cc1ccnc(SCC(N)=O)n1	-4%	-7%
O=C(CCNS(=O)(=O)c1ccc(Br)s1)Nc1ccc(Br)cc1	-12%	-25%
Cc1nc2ccccc2c(=O)n1-c1cccc(NC(=O)c2cccs2)c1	1%	3%
Cc1cc2c(cc1S(=O)(=O)CCC(=O)NC1CCC(C)CC1)OCC(=O)N2 (stereo not drawn)	-16%&-13%	-5%&-9%
Cc1ccc(/C=C(/NC(=O)c2ccccc2)C(=O)NCCc2c[nH]c3ccccc23)o1	4%	-1%
COc1ccccc1NC(=O)CCS(=O)(=O)c1ccc2nc(C)sc2c1	1%	-14%
CC(=O)Nc1ccc(S(=O)(=O)N(C)CC(=O)OCC(=O)Nc2ccc3c(c2)OCO3)cc1	-3%	-14%
COC(=O)c1ccc(Oc2ccc3nncn3n2)cc1	-11%	-16%
CC1CCN(c2nc3ccc(C(=O)NCc4ccccc4Cl)cc3s2)CC1	-8%	-15%
COc1ccc(NC(=O)CN(C)S(=O)(=O)c2ccc3c(c2)CCC(=O)N3)c(OC)c1	6%&-16%	-5%&-16%
N[C@@H](Cc1cc(I)c(O)c(I)c1)C(=O)O	-7%&-13%	-13%
Nc1nnc(SCC(=O)Nc2cccc(Cl)c2)s1	-14%	-14%
CCOC(=O)/C(C#N)=N/Nc1ccccc1OC	-10%	-7%
COc1ccc(C(=O)NCC(=O)OCc2ccc([N+](=O)[O-])cc2)cc1	-10%	-9%
COCCCN(C(=S)Nc1ccc(C)cc1Cl)C(C)c1ccncc1 (stereo not drawn)	-18%	-17%
Cc1ccc(CNc2ccc(-c3nc(-c4ccccn4)no3)cc2[N+](=O)[O-])cc1	?	-29%
CSC1=NCCN1C(=O)c1ccc(Br)o1	-10%	i
O=C(Cn1[nH]c(=O)c2ccccc2c1=O)OCC(=O)N1CCCc2ccccc21	-15%	0%
CCC(=O)Nc1cc(C(C)C)c(O)cc1C	-7%	-20%

Going on with the list.
SMILES	Vaccinia Venus	Vaccinia mCherry
C(=N\N1CCN(C(c2ccccc2)c2ccccc2)CC1)/c1ccc2c(c1)OCO2	-13%	i
C/C(=N\N=C(/N)SC1CC(=O)N(c2ccc(Cl)c(Cl)c2)C1=O)c1cccs1 (stereo not drawn)	-17%	-23%
O=C1c2ccccc2S(=O)(=O)N1CCS(=O)(=O)c1ccc(F)cc1	?	?
Cc1c(C)n(C(=O)CSc2nccn2C)c2ccccc12	-5%	-3%
O=C(CC1c2ccccc2Oc2ccccc21)NCc1ccco1	-18%	-15%
COc1ccc(N(C)S(=O)(=O)c2cccc(C(=O)OCC(=O)N(C)c3ccccc3)c2)cc1	-30%	i
CCN(CC)c1ccc(NC(=O)Cn2c(C(C)NC(=O)c3ccccc3)nc3ccccc32)cc1 (stereo not drawn)	-13%	i
O=S(=O)(c1cccc(F)c1)N1CCC(CO)(Cc2cccc(F)c2)CC1	-15%	-15%
O=C(Oc1c(-c2ccccc2Cl)oc2ccccc2c1=O)c1ccc(Cl)cc1	-13%	-6%
Cc1cc(C)n(CCNS(=O)(=O)c2ccccc2)n1	-3%	i
COCCCNC(=O)Cn1c(=O)n(-c2ccc(C)c(C)c2)c(=O)c2c3c(sc21)CCCCC3	0%	-16%
CCN(CC)C(=O)C1=C(C)N(Cc2ccc(C(C)(C)C)cc2)C(=O)C(CC(=O)NC(c2ccccc2)c2ccccc2)C1 (stereo not drawn)	13µM*	?
CN(CCCN1CCOCC1)C(=O)c1cc(COc2ccc(F)cc2F)on1	0%[7.34 µM]	-13%[7.34 µM]
Cc1ccc(-n2ncc(C(=O)NCCCN3CCc4ccccc4C3)c2C2CCN(C(=O)OC(C)(C)C)CC2)c(C)c1	-23%	-23%
CC(C)CNc1c(N)c(=O)oc2ccccc12	-19%	-18%
COc1ccc(-n2c(SCc3nc(-c4ccc(C)cc4)no3)nnc2-c2ccccc2)cc1	-7%	-13%
C/C(Cc1ccccc1)=N\NC(=O)CNC(=O)COc1ccccc1	-8%	-8%
Cc1ccc(S(=O)(=O)NC(=O)C2(C)CCN2C(=O)c2ccccc2CCc2ccccc2)cc1 (stereo not drawn)	-4%	i
C=CCN(CC=C)CCCOc1ccccc1C(=O)OC	-12%	-14%
Fc1ccc(-c2nnsc2Sc2ccccn2)cc1	-8%	i
COc1ccc(-c2nc3ccc(Br)cn3c2Cc2cccc(Cl)c2)cc1OC	5%	15%
COc1cc(C)nc(NC(=O)NC(=O)c2ccc(C(F)(F)F)cc2)n1	-2%	-16%
CC(C)(C)NC(=O)NC(=O)CSc1n[nH]c(-c2ccccc2Br)n1	-12%	-4%
O=[N+]([O-])c1ccc(Oc2c(F)c(F)nc(N3CCCC3)c2F)cc1	-10%	/
Cc1ccc2nc(C)c3c(c2c1)COC3	-15%	-19%

(more compounds)
SMILES	Vaccinia Venus	Vaccinia mCherry
CN1CCN(C2=NC3(CCCC3)C(C#N)C(=O)N2)CC1 (stereo not drawn)	-4%	-4%
CC(C)c1cc(C(=O)OCC(=O)NC2CCS(=O)(=O)C2)c(O)c(C(C)C)c1 (stereo not drawn)	-11%	-9%
CCCCNS(=O)(=O)c1ccc(NC(=O)C2c3ccccc3Oc3ccccc32)cc1	?	-8%
CCOC(=O)/C(C#N)=C1\CCCN1CC(N)=S	-11%	-17%
Cn1c(CSc2nc3ccccc3s2)nnc1SCC(=O)NCCCN1CCOCC1	-7%	i
CC(=O)c1ccc(N2CCN(c3ncccn3)CC2)c([N+](=O)[O-])c1	-4%	29%
CC1CN(Cc2ccccc2Cl)CC(C)O1 (stereo not drawn)	1%	i
CCN(CC)c1ccc(CC2C(=O)N(C)C(=O)N(C)C2=O)cc1	12%	-12%
CCCN=C1N(CC)C[C@@H]2[C@@H]3C(=O)N(C)C(=O)[C@@H]3[C@](C)(C(=O)OC)N12	-13%	i
C#CCNC(=O)C1=C[C@H](C2CCCCC2)[C@@H](CCCO)[C@H](OCC)O1	-28%	-22%
O=C(COc1ccccc1)Nc1ccccc1C(=O)OCc1cc(=O)n2nc(C3CC3)sc2n1	-11%	-12%

Compounds as they come (roughly 0.82% active in at least one column).
